# High-throughput results deposited in PubChem by National Center for Advancing Translational Sciences (NCATS).
# Six1-Eya2 inh – blocks human Six1 binding to Eya2 | hit rate 0.56% among 360,000 | Q15475+O00167 | AlphaScreen GST-Six1/His-Eya2 binding, biochemical; stronger effect = lower value; control for the full effect not named in the record | activity change, % (no concentration beside the values); in the data active = activity change below about -65%; inconclusive = about -30% to -65%; inactive = above about -30%; further: on the % scale 0 is the no-effect control and ±100 the full control effect; compound concentration not given in the record
#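 Six1/Eya2 binding was read as AlphaScreen signal after compounds were pinned into GST-Six1 plus His-tagged Eya2 (5X stock 250/500 nM) in pH 8.0 Tris/NaCl/TCEP buffer, beads added, then incubated 1 h, 37 C, dark.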
# CtBP-E1A inh – blocks the CtBP interaction with E1A. AlphaScreen GST-E1A/His-CtBP binding, 1536-well; stronger effect = lower value; control for the full effect not named in the record. activity change, % (no concentration beside the values). hit rate 0.49% among 340,000. AID 651724; in the data active means activity change below about -65%; inconclusive means about -30% to -65%; inactive means above about -30%; further: on the % scale 0 is the no-effect control and ±100 the full control effect; compound concentration not given in the record
#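 AlphaScreen with 125 nM GST-E1A and 125 nM His-CtBP (5X stocks) in Tris pH 8.0, 300 mM NaCl, BSA, Tween 20, TCEP. Compounds preincubated 2 h at 37 deg C, then glutathione donor/nickel acceptor beads added for 1 h at 37 deg C in dark.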
# D2 potentiator – positive allosteric modulators of human D2 dopamine receptor. P14416. DiscoveRx D2 beta-arrestin cells, luminescence, 90 min; 100% = 57 uM dopamine signal. potentiation, % (no concentration beside the values). hit rate 0.23% among 360,000; active = potentiation of 50% or more; inconclusive = 30% to 50%; inactive = 30% or less;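 further: compound concentration not given in the record; tested on top of an EC20 dose of dopamine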
# Target sequence (P14416 whole entry, looked up): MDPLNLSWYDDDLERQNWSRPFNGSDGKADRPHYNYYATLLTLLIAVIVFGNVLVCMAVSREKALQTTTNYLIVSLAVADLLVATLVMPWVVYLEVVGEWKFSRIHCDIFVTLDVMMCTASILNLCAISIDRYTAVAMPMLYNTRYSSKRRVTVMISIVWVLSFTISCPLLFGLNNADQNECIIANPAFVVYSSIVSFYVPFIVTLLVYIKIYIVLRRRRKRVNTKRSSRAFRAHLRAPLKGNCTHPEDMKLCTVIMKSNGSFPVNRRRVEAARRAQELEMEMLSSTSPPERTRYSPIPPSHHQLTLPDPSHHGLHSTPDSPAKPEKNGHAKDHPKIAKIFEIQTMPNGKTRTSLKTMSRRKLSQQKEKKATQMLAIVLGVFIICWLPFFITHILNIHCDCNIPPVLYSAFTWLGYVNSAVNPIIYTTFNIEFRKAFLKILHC
#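 PathHunter D2 cells, attached overnight at 37 deg C, received compound in DMSO plus dopamine at EC20 (50 nM final) for 90 min at 37 deg C. Beta-arrestin recruitment was read as luminescence after 1 h with detection reagent at ambient temperature.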
# Sfp inh – Sfp phosphopantetheinyl transferase inhibition | Biochemical Sfp PPTase activity, qHTS | Potency, µM, without a hit: max response, negative = inhibition, usual class: inhibitors | hit rate 3.5% among 310,000 | Q9F4F7 | AID 1490; active means well fitted inhibition curve with a large enough effect; inconclusive means small, poorly fitted or top-dose-only effect, or another doubt; inactive means no such curve, though single readings can be large or run the other way;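 further: the enzyme is Sfp with the accession as filed and its product quenches rhodamine fluorescence; potency means the concentration at half of the fitted maximal effect; 0% = enzyme reaction without inhibitor and -100% = no enzyme wells; top concentration of the series not given in the record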
#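 Fluorescence-quenching assay: 15 nM Sfp-PPTase preincubated 15 min at room temperature with compound, then 5 uM rhodamine-CoA and 12.5 uM BHQ-2-labelled YbbR peptide added. Fluorescence (ex 525/em 598 nm) read at start and after 30 min; difference gives rate.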
# TRPV1 PAM – enhances activation of the human vanilloid receptor TRPV1 | TRPV1-expressing cells, Fluo-8 calcium influx, capsaicin EC20 potentiation; host cell line not named in the record; control for the full effect not named in the record | potentiation, % at 8.33 µM | hit rate 0.02% among 320,000 | AID 540277; active means potentiation above 80%; inconclusive means 30% to 80%; inactive means below 30%; further: 0% is about no effect
#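 Fluo-8 calcium influx in TRPV1-expressing cells, kinetic read (ex 480/em 520 nm). Compound added and read 3 min for agonist activity, followed by capsaicin at EC20 final and 2 min further read for enhancement.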
# PINK1 expr mod – modulators of PINK1 expression | PINK1 immunofluorescence, high-content cytometry, 24 h | Potency, µM (series often up to 76.6 µM), without a hit: at the top dose activation (PINK1 increase), hits mostly activators | hit rate 0.2% among 410,000 | AID 624263; active = well fitted activation curve with a large enough effect; inconclusive = small, poorly fitted or top-dose-only effect; inactive = flat fitted curve, though single readings scatter; cell line not stated here;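 further: potency means the concentration at half of the fitted maximal effect; % of control where 0% means no effect; nearly all actives have a fitted effect of over 65% in size; a mitochondrial uncoupler was the plate control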
#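 Stable cell line, 250 cells/well, 12 h attachment; compounds pinned at 5 concentrations, 24 h; CCCP control. Fixed with nuclear dye, primary antibodies 12 h at 10 degrees C, secondary plus cell stain; laser-scanning cytometer read.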
# D2 ag – human D2 receptor agonism in beta-arrestin assay. P14416. DiscoveRx PathHunter D2 beta-arrestin, luminescence, 90 min; 100% = 57 uM dopamine signal. hit rate 0.084% among 360,000. activation, % (concentration not given with the values); in the data active = activation above about 40%; inconclusive = about 15% to 40%; inactive = below about 15%; further: compound concentration not given in the record; the text of the record calls up to 30% inactive
#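 DiscoveRx PathHunter D2 beta-arrestin cells (2,100/well) attached overnight, then compound-stimulated 90 min at 37 C in HBSS/10 mM HEPES/0.1% Tween-20 buffer; beta-galactosidase complementation read by luminescence after 1 h at ambient temperature. Dopamine 57 uM final (EC100) as control.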
# An asterisk follows results filed as active; ? = inconclusive; . = not tested or not shown; & = joins results of further samples; [ ] = remark or other dose.
SMILES	CtBP-E1A inh	Six1-Eya2 inh	Sfp inh	PINK1 expr mod	TRPV1 PAM	D2 potentiator	D2 ag
CC(C)c1cccc(C(C)C)c1NC(=O)COC(=O)[C@H](C)NC(N)=O	-2	22	14%	-0.8%	-1	1	-6.7
CC1CCN(c2ccc(C(=O)NCc3cccs3)cn2)CC1	5	-1	6%	2.8%[38.3 µM]	5	1	-3.2
O=C(CN(C(=O)CCC(=O)Nc1nccs1)c1ccccc1F)NCC1CCCO1 (stereo unspecified)	-1	1	22%	0.4%	-5	1	-1.6
CC1COC(=O)C(NNc2ccc(Cl)c(Cl)c2)=N1 (stereo unspecified)	.	5	-8%	-2.2%	-8	-14	6.9
Cc1cccc(NC(=O)NNS(=O)(=O)c2ccc(F)cc2)c1	-10	1	25%	0.3%	-7	-16	-1.2
Fc1ccc(N/N=C2/CC(c3ccccc3)Oc3ccccc32)c(F)c1 (stereo unspecified)	-21	-18	?	12%	14	82*	14
CCN1C[C@@H]2[C@@H]3C(=O)N(Cc4ccccc4)C(=O)[C@@H]3[C@](Cc3ccccc3)(C1=O)N2C(=O)c1ccc(C)cc1	0	0	.	0.0%	.	-2	-2.1
O=C(Nc1cc(Cl)ccc1Cl)C1CCCO1 (stereo unspecified)	10	-1	10%	2.7%	4	-13	-1.4
Cc1ccc(-n2c(=O)[nH]cc(C(=O)Nc3ccc4c(c3)OCCO4)c2=O)cc1C	5	-2	35%[activator]	1.6%[38.3 µM]	7	1	0.1
O=C(COC(=O)c1ccc(C(F)(F)F)cc1)NC(=O)NC1CCCC1	5	2	.	8.1%	3	-3	1.2
O=C(c1cccnc1)N1CCN(Cc2ccc3ccccc3c2)CC1	.	0	-1%	3.3%	-4	-14	-2.5
CCOCCc1nnc(NC(=O)C(C)Oc2ccccc2)s1 (stereo unspecified)	36	8	19%	1.8%	-1	1	-4.5
CCOc1cc(CNCCN(C)C)c(Cl)cc1OCC(=O)NCCc1ccccc1	-6	-3	4%	-0.8%	13	-10	-4.5
Cc1nnc(NCc2ccco2)s1	13	0	12%	-1.2%	-51	-3	-3.2
O=C(CN1CCN(Cc2ccc(Cl)cc2)C1=O)NCCCN1CCN(c2ccc(F)cc2)CC1	-6	-4	16%	1.5%[38.3 µM]	3	-14	3.2
COCCN(CC(=O)Nc1cccc(S(=O)(=O)N2CCCC2)c1)Cc1nc2ccccc2c(=O)[nH]1	-3	-8	.	-2.2%	3	-6	-3.5
Nc1ccccc1SCC(=O)Nc1ccc2c(c1)OCO2	-4	-11	-5%	0.5%	4	-13	-2.4
Cc1ccc(C(=O)CSc2ncnc3sc4c(c23)CCC(C)C4)cc1 (stereo unspecified)	-6	23	-4%	-0.1%	12	0	4.1
COc1cc(-c2nc3ccccc3nc2-c2ccc(O)c(OC)c2)ccc1O	-12	-18	2%	9.7%	-4	-4	3.2
CCCC(c1nnnn1CCOC)N1CCN(c2nc3ccccc3s2)CC1 (stereo unspecified)	2	8	?	1.6%	9	-6	-1.6
COC(=O)c1nn(Cc2ccccc2)c(=O)c2ccccc12	7	8	-8%	4.0%	-12	3	-3.8
CC(C)CNC(=O)NC(=O)COC(=O)c1cc(F)cc(F)c1	-11	0	14%	-0.4%	-7	-10	-2.0
CC1CN(c2oc(COc3ccc(Cl)cc3Cl)nc2C#N)CC(C)O1 (stereo unspecified)	?	?	8%	2.2%	0	-27	-4.7
CCOC(=O)C(Cc1ccc(NC(=O)/C(=C\c2ccccc2)NC(=O)c2ccccc2)cc1)N1C(=O)c2ccccc2C1=O (stereo unspecified)	-3	-3	17%	3.9%	8	-28	-6.0
O=C(NC(=S)NC1CCC(O)CC1)c1ccco1 (stereo unspecified)	0	7	.	1.7%	.	10	-2.3
COc1cc(C(=O)N(Cc2ccccc2)c2cccc(C)c2)ccc1OC(F)F	22	6	4%	6.0%	-3	-13	-5.0
O=C(COc1ccc(C(=O)NCCN2CCOCC2)cc1)Nc1cccc(C(F)(F)F)c1	-6	3	.	-2.2%	0	-9	-2.1
CC(C)N(Cc1ccccc1)C(=O)COC(=O)c1ccc2c(c1)OCCO2	-1	2	6%	-0.5%	5	-17	-2.1
O=C(NCCCNC(=O)c1c(Cl)cccc1Cl)c1c(Cl)cccc1Cl	3	-8	.	0.6%	.	-10	-6.8
Cc1ccccc1S(=O)(=O)Cc1ccc(C(=O)NCCCN2CCC(C)CC2)o1	3	2	24%	-0.3%	-1	-16	-4.7
Brc1ccc(-c2csc3ncnc(-n4nnc5ccccc54)c23)cc1	-15	12	10%	1.4%	-7	7	3.7
COc1ccc(-n2nc(C(=O)NCC(=O)NCC3COc4ccccc4O3)c3ccccc3c2=O)c(OC)c1 (stereo unspecified)	-3	-5	-19%	0.3%	12	-1	-2.6
Cc1ccc(S(=O)(=O)N2CCN(C(=O)CC(C)C)CC2)cc1	-7	-17	21%	-0.2%	-10	-2	1.9
COc1cc(C(=S)N2CCOCC2)ccc1OS(=O)(=O)c1ccc(C)cc1	0	-7	9%	-2.2%	-6	2	1.5
CC(C)(C)/C(O)=C(/C#N)c1nc2ccccc2[nH]1	-7	-3	5%	3.6%[38.3 µM]	-15	-6	-1.3
CCOC(=O)c1cccc(NC(=O)c2c(N)n(C)c(=O)[nH]c2=O)c1	-13	7	.	-1.1%	.	-5	-1.7
Cc1ccc(S(=O)(=O)NCC(=O)OC2CCOC2=O)cc1 (stereo unspecified)	5	4	29%	-0.6%	-1	-7	-2.8
CCNC(=O)c1ccc(NC(=O)CC2SC(N3CCCC3)=NC2=O)cc1 (stereo unspecified)	-26	10	.	5.1%	27	2	-1.8
O=S(=O)(/N=C(/Nc1cccnc1)c1ccccc1)c1ccc(F)cc1F	16	8	.	0.5%	.	-7	-3.1
Cc1cc(C)n2cc(CSc3nc4cc(Cl)ccc4o3)nc2n1	10	-8	?	-0.2%	18	5	-2.9
NC(=O)Nc1cccc2ccccc12	-13	1	2%	-0.5%	-1	-1	-4.7
CCOc1ccc(-c2nc(-c3ccccc3)no2)cc1OCC	6	-8	0%	7.3%	?	-4	-1.4
C[C@@H]1O[C@H](C2CCCCC2)Cc2[nH][nH]c(=O)c21	-12	13	.	1.5%	.	.	.
CC(C)(C)N1C(=O)c2ccc(C(=O)Nc3cc(C(=O)O)cc(C(=O)O)c3)cc2C1=O	.	0	22%	0.5%	-10	-7	1.2
Cn1c(SCC(=O)N2CCCCC2)nc2c([nH]c3ccccc32)c1=O	2	-1	17%	-0.3%	-15	0	-0.3
Cc1cccc(N/N=C/c2ccncc2)c1	0	-14	3%	4.4%	-11	-12	-7.7
CC(C)NC(=O)[C@H]1N2C(=O)c3ccccc3C2SC1(C)C (stereo partly specified)	15	7	2%	0.5%	?	-6	-4.1
CCN(CC(=O)Nc1cc(Cl)ccc1C)C(=O)CC1CCCC1	5	7	.	1.5%	.	-16	-6.6
COc1ccccc1CNC(=O)COC(=O)c1ccccc1-c1ccccc1	-21	8	.	0.0%	-2	-8	1.4
COc1ccc(CNC(=O)COC(=O)/C=C/c2cccc(Cl)c2)cc1	-3	2	.	1.8%	.	-7	-1.4
COc1ccc2c(C)cc(=O)oc2c1	5	-3	19%	-0.3%&-0.1%	.	6	10
CCN(C(=O)C1CCCN(c2nc(-c3ccc(OC)cc3)no2)C1)c1ccccc1F (stereo unspecified)	1	1	-24%	15%	-17	-1	-0.2
O=C(NCc1ccncc1)c1ccc(NS(=O)(=O)c2cccc([N+](=O)[O-])c2)cc1	20	-2	.	0.3%	11	-24	3.0
COc1ccccc1OCCC(=O)OCC(=O)Nc1ccc2c(c1)OCCO2	2	7	.	3.1%	.	-10	-0.5
Cc1ccc(NC(=O)COC(=O)Cc2csc(-c3cccc(F)c3)n2)cc1C	6	1	10%	-1.0%	-11	-13	-1.0
CCCOc1ccc(/C(O)=C2/C(=O)C(=O)N(CCCn3ccnc3)C2c2cccs2)cc1 (stereo unspecified)	7	1	14%	0.2%	8	-2	1.1
COC(=O)c1ccc(C(=O)N2CCCC(CNC(=O)c3ccc(F)cc3)C2)cc1 (stereo unspecified)	3	1	9%	1.2%	0	-5	1.3
Cc1ccc(C(=O)OCC(=O)N2CCOCC2)cc1	5	13	17%	0.4%	6	-4	-3.8
COc1ccc(NS(=O)(=O)c2ccc(C(=O)Nc3c(C)n(C)n(-c4ccccc4)c3=O)cc2)cc1	-20	-6	.	0.6%	.	16	5.1
CCn1c(SCc2nc3scc(-c4ccccc4)c3c(=O)[nH]2)nnc1-c1cccs1	?	?	-20%	1.2%	23	-8	-1.7

# Next section.
SMILES	CtBP-E1A inh	Six1-Eya2 inh	Sfp inh	PINK1 expr mod	TRPV1 PAM	D2 potentiator	D2 ag
Clc1ccc(Nc2ccc(NCc3ccccc3)nn2)cc1	-6	-7	-18%	?	5	-32	-2.3
CN(Cc1ccccc1)S(=O)(=O)c1cn(C)cn1	0	-14	4%	0.4%	-2	-3	-5.4
COc1ccc(CC(=O)NNC(=O)COc2ccc3ccccc3c2)cc1	-1	4	1%	-2.1%	0	-8	-2.1
CN(C(=O)COC(=O)/C=C/c1ccccc1[N+](=O)[O-])c1ccccc1	10	-3	2%	-0.3%	4	2	-3.6
CCn1[nH]c(=O)c(=Nc2c(C)n(C)n(-c3ccccc3)c2=O)cc1-c1ccc(Cl)cc1	0	-5	14%	-2.7%	-11	-5	-2.7
O=C(c1cccs1)N1CCN=C1SCc1ccc(Cl)cc1	0	8	-1%	-0.5%	-21	-4	-1.7
O=c1c2c3c(sc2ncn1/N=C/c1ccc(Br)o1)CCCC3	6	-1	-5%	4.7%[38.3 µM]	-4	-20	-0.1
O=C1CCCN1CCCNCC(=O)N1c2ccccc2Sc2ccccc21	-10	-10	?	-0.9%	-8	-10	-3.8
NC(=O)c1oc2ccccc2c1NC(=O)Cc1ccccc1	.	8	1%	0.4%	-8	10	0.1
